Mtb H37Rv: Confirmatory growth inhibition assay against Mycobacterium tuberculosis H37Rv, potency (AID 1949); most inactive calls were filed without a number and no value below 0 was filed; inhibition, % at 10 µg/mL; hits with a dose series show IC50 in µg/mL; actives 1.6% (n = 100,000);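 active = confirmed in a dose series; inconclusive = about 50% or more but not retested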;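 note: bacteria grown 7 days with compound before Alamar blue readout; 0% = untreated bacteria and 100% = reference antibiotic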
The depositor's hits bear a star; i = inactive; ? = inconclusive. These rows are one share of the data, so the mix of outcomes need not match the whole.

SMILES	Mtb H37Rv
CSc1cccc(NC(=O)CN(Cc2ccccc2F)S(=O)(=O)c2ccc(C)cc2)c1	i
Cc1ccc(CN2CCN(C(=O)c3cccs3)CC2)cc1	i
O=C(CN(Cc1ccc(Br)cc1)S(=O)(=O)c1ccc(Cl)cc1)NCc1ccco1	i
CC(=O)N/C(=N\c1nc(C)cc(C)n1)Nc1ccccc1Cl	i
O=C(CSc1c(-c2ccccc2)c2cc(Cl)ccc2[nH]c1=O)NCc1ccccc1	i
N#C/C(=C\c1ccc(OC(=O)c2ccco2)cc1)S(=O)(=O)c1ccccc1	i
COc1ccccc1N1CCN(C(=O)C2CCN(S(=O)(=O)c3ccc(F)cc3)CC2)CC1	i
O=S(=O)(Nc1ccccc1Cl)c1ccccc1F	i
CCc1ccccc1OCC(=O)Oc1ccccc1-c1ccccc1	i
N#CCCn1cc(CNCc2ccccc2)c(-c2ccc(F)cc2)n1	i
Cn1c(Cc2cccs2)nnc1SCC(=O)N1CCCc2ccccc21	i
COc1ccc(CN2C(=O)C(O)(CC(=O)c3ccco3)c3ccccc32)cc1OC (stereo unspecified)	i
CC(C)(C)c1ccc(SCC(O)CSc2nc3c(cc2C#N)CCCC3)cc1 (stereo unspecified)	5.2%
O=S(=O)(NCCSc1nnnn1-c1ccccc1)c1ccc(F)cc1	0.3%
COC(=O)c1ccccc1NC(=O)NCc1ccc(Cl)c(Cl)c1	i
CCc1ccccc1N(CC(=O)Nc1cc(C(F)(F)F)ccc1Cl)S(=O)(=O)c1ccccc1	0.0%
CCN(Cc1ccncc1)C(=S)Nc1c(C)cccc1C	i
CCn1nnc(NC(=O)c2ccc([N+](=O)[O-])c(C)c2)n1	i
O=C(O)COc1ccc2ccccc2c1Br	i
Cc1ccccc1N(CC(=O)Nc1ccccc1Br)S(C)(=O)=O	i
CCCOc1ccccc1Cn1c(=O)oc2ccccc21	3.0%
CCc1ccccc1N1C(=O)C2C3c4ccccc4C(C(=O)O)(c4ccccc43)C2C1=O (stereo unspecified)	i
Fc1ccc(CNCc2ccc3c(c2)OCO3)cc1	i
CC(C)(C)NC(=O)C1CCN(S(=O)(=O)c2ccccc2)CC1	i
CCn1c(CNC(=O)c2cccc(C)c2)nnc1SCC(=O)Nc1ncc(C)s1	i
SMILES	Mtb H37Rv
COc1ccc(Cl)cc1Nc1ncnc(N)c1[N+](=O)[O-]	i
CC1CCc2sc3ncnc(N4CCN(C5CCCC5)CC4)c3c2C1 (stereo unspecified)	i
Cc1ccc(C)c(N2CCN(S(=O)(=O)CC34CCC(CC3=O)C4(C)C)CC2)c1 (stereo unspecified)	3.2%
O=C(NNC(=S)Nc1cccc(Cl)c1Cl)c1csc2ccccc12	13.2%
COc1cccc(NC(=S)NCCc2ccc(OC)c(OC)c2)c1	i
Cc1ccc(-c2nc3ccccc3c(=O)n2-c2ccncc2)cc1	i
O=S(=O)(c1ccc(Cl)cc1)N1CCN(Cc2ccc(C(F)(F)F)cc2)CC1	i
O=C(Cn1cc(C(=O)C2CC2)c2ccccc21)Nc1ccccc1Cl	i
CCOc1ccc(N(CC(=O)N2CCC(C(N)=O)CC2)S(=O)(=O)c2ccc(Cl)cc2)cc1	6.7%
COc1ccc(Cl)cc1C(=O)Nc1cccc(C#N)c1	i
CC1=C(C(=O)OC(C)C)C(c2ccc(-c3ccccc3[N+](=O)[O-])o2)C(C(=O)OC(C)C)=C(C)N1	1.9%
CCOc1ccc(S(=O)(=O)N2CCN(c3ccc(OC)cc3)CC2)cc1	0.6%
CC(C)OC(=O)c1c(NC(=O)c2cccnc2)sc2c1CCC2	1.4%
COc1ccc(CCNC(=O)CN(c2cccc(OC)c2)S(C)(=O)=O)cc1	i
FC(F)(F)c1ccccc1NC(=S)NCCn1cc(Cl)cn1	i
Cc1cc(NC(=O)c2cccs2)ccc1NC(=O)Cc1ccccc1	i
COc1ccc(OC)c(NC(=S)N2CCN(Cc3ccccc3)CC2)c1	i
Cc1cc(C)cc(OCCOCCN(C)C)c1	0.7%
O=C(Cn1c(-c2cncs2)nc2ccccc21)NCc1ccc2c(c1)OCO2	i
CC(=O)Nc1ccc(OC(=O)CSc2nc3ccccc3s2)cc1	0.1%
CCn1c(SCC(=O)NC2CCCCC2)nnc1-c1ccc(Cl)cc1Cl	i
CCCOc1ccc(Oc2nc(NCC)nc(OC)n2)nn1	i
CCc1ccc(OCc2nnc(SCC(=O)Nc3cc([N+](=O)[O-])ccc3C)n2CC)cc1	3.1%
Cc1cc(C)n(CC(O)c2ccccc2)n1 (stereo unspecified)	i
O=C(C1CCN(CC2CCCCC2)CC1)N1CCN(C/C=C/c2ccccc2)CC1	i
SMILES	Mtb H37Rv
COc1ccc(/C=C2\C(=O)NC(=O)N(C)C2=O)cc1OC	i
NC(=O)CSc1nnc(SCc2cccc3ccccc23)s1	15.1µg/mL*
CCOc1ccc(C(=O)NC(=S)NC2CCCC2)cc1Br	3.8%
Cc1ccc(-c2csc(Nc3ccc(O)cc3)n2)cc1	i
COc1ccc(C2C3=C(CC(C)(C)CC3=O)Nc3nc(SC)[nH]c(=O)c32)cc1 (stereo unspecified)	1.1%
CCCSc1nnc(-c2ccncc2)n1-c1ccccc1	i
Cn1cnc2cc(NC(=O)c3ccc(Cl)cc3)ccc21	i
C=CCN(c1ccc(C(=O)Nc2sc3c(c2C(=O)OC)CCCC3)cc1)S(C)(=O)=O	i
NC(=O)c1ccc(C(=O)NNC(=S)NCc2ccc(Cl)cc2)cc1	i
CC1CCN(C(=O)c2ccc3c(c2)C(=O)c2ccccc2-3)CC1	i
COC(=O)c1ccc(COC(=O)CNC(=O)CNC(=O)c2ccc(C)cc2)cc1	i
COc1cccc(C(=O)Nc2cc(C(=O)O)cc(C(=O)O)c2)c1	i
Cc1cc(C)n(C(=O)COc2ccc3ccccc3c2Br)n1	i
COC(=O)Cc1c(C)c2ccc(OCc3cc(C)cc(C)c3)cc2oc1=O	42.8%
O=C(CSc1nnc(COc2ccccc2)o1)NC1CC2CCC1C2 (stereo unspecified)	i
Cc1ccc(N(CC(=O)N2CCc3ccccc3C2)S(C)(=O)=O)c(C)c1	i
O=C(Nc1cccc(C(=O)OC2Cc3ccccc3C2=O)c1)c1ccccc1 (stereo unspecified)	i
CCOC(=O)C1=C(C)NC(=S)NC1c1cccc(Oc2ccccc2)c1 (stereo unspecified)	3.4%
CCC(C)(C)NC(=O)CC(c1ccccc1)c1ccccc1	i
CC1CCN(c2oc(COc3ccc(Cl)cc3)nc2C#N)CC1	?
O=C(CS(=O)(=O)Cc1ccccc1)Nc1ccc(S(=O)(=O)NCCc2ccccc2)cc1	i
O=C(N1CCCCC1)N1CCCN(C(=O)N2CCCCC2)CC1	i
Cc1cnn(C(=S)NCC2CCCO2)c1 (stereo unspecified)	i
CCOc1ccc2nc(NC(=O)c3cccc(-c4cc5ccccc5oc4=O)c3)sc2c1	i
Cc1cc(C)c(S(=O)(=O)Nc2cc(Cl)c(O)c3ccccc23)cc1C	7.2%
SMILES	Mtb H37Rv
Cc1cc(C)cc(NC(=O)c2ccc(COCC(F)(F)C(F)F)cc2)c1	i
Cc1ccc(-c2c3c(nc4sc(C(N)=O)c(N)c24)CCCCC3)cc1	1.9%
CC1CCCN(CCOc2ccccc2)C1 (stereo unspecified)	i
COc1ccc(N2CCN(C(=O)CCCN3C(=O)c4cccc5cccc(c45)C3=O)CC2)cc1	i
CCN(C(=S)NC(=O)c1ccc(OC)c(Br)c1)c1ccccc1	i
CCOc1ccc(OCCOc2ccccc2OC)cc1	4.2%
Cc1cccc(NC(=O)c2ccccc2OCC(=O)N2CCOCC2)c1C	i
CCc1cccc(OCC(=O)Nc2ccc(OC)cc2[N+](=O)[O-])c1	i
CCOC(=O)c1sc(-c2ccccc2)cc1N	i
Nc1cc(=O)nc(SCC(=O)N2c3ccccc3Sc3ccccc32)n1-c1ccccc1	i
COc1ccc(N2CCN(C(=O)COc3ccc(S(=O)(=O)NCC(C)C)cc3Cl)CC2)cc1	i
Cc1ccc(C(=O)C23CC4CC(C2)CC(C(=O)c2ccc(C)cc2)(C4)C3)cc1	1.3%
COC(=O)c1sccc1NC(=O)Cc1ccc(OC)c(OC)c1	i
COc1ccc(S(=O)(=O)N2CCN(c3ccc(C)cc3C)CC2)cc1	3.6%
CC(=O)Nc1cccc(NS(=O)(=O)c2ccccc2)c1	i
Cc1ccc([N+](=O)[O-])cc1NC(=O)CCC1CCCC1	i
COc1ccc(NC(=O)CC23CC4CC(CC(C4)C2)C3)cc1[N+](=O)[O-]	3.05µg/mL*
CCn1c(CNC(=O)c2ccccc2F)nnc1SCC(=O)Nc1ccc(Br)cc1C	i
Cc1cc(C)cc(COc2ccc3c(C)c(CCC(=O)O)c(=O)oc3c2C)c1	0.32µg/mL*
COc1ccc(NC(=O)CC(C)=O)c(OC)c1	i
COc1cc(NC(=O)c2cncc(Br)c2)cc(OC)c1OC	i
CCCOc1cccc(-c2nc3ccc(OC(C)=O)cc3c(=O)o2)c1	37.9%
O=C(Nc1cnn(Cc2c(Cl)cccc2Cl)c1)NC1CCCCC1	i
NS(=O)(=O)c1ccc(NC(=O)c2ccc(-c3ccc([N+](=O)[O-])cc3)o2)cc1	i
CC1=C(C(=O)OCC2CCCO2)C(c2ccc(Br)s2)C2=C(CCCC2=O)N1 (stereo unspecified)	i
SMILES	Mtb H37Rv
Cc1nc2cc(NC(=O)Nc3ccc(I)cc3)ccc2n1C	i
O=C(NCc1ccc(Cl)cc1Cl)C1CCN(C(=O)c2ccc(Br)cc2)CC1	5.1%
CCOc1ccc(NC2=C(Cl)C(=O)N(c3cccc(C)c3)C2=O)cc1	i
N#CCn1cnc2sc(-c3ccccc3)cc2c1=O	i
COC(=O)c1ccc(C=NN2CCN(c3ccc(Cl)cc3)CC2)cc1	i
Cc1ccc(-c2nn(-c3ccccc3)cc2C(=O)Nc2cccc(C)c2)cc1	i
O=C(OCc1cccc([N+](=O)[O-])c1)c1ccc2ccccc2c1O	i
CC(=O)Nc1nonc1-c1nc2ccccc2n1CC1CC1	i
Fc1ccc(OCCOc2ccc(F)cc2)cc1	0.2%
Cc1csc(NC(=O)c2sc3nc4c(c(C(F)(F)F)c3c2N)CCC4)n1	4.8%
COc1cc(C=O)cc(Br)c1OC(C)=O	0.8%
CC(=O)c1cccc(NC(=O)COc2ccc(S(=O)(=O)NC(C)C)cc2)c1	i
CC(C)CNC(=O)C1CC(=O)N(c2ccc(OCC(=O)NCc3ccccc3)cc2)C1 (stereo unspecified)	i
COCCCNC(=O)c1cc(-c2ccc(C)c(C)c2)nc2ccccc12	i
CCN=C(NS(=O)(=O)c1ccc(Cl)cc1)c1ccc(F)cc1	i
CC(NC(=O)c1ccco1)c1ccc(Br)cc1 (stereo unspecified)	i
CC(=O)N1N=C(c2ccco2)CC1c1ccc(Br)cc1 (stereo unspecified)	i
Cc1cc(C)cc(C(=O)Nc2ccccc2N2CCOCC2)c1	2.2%
CCOC(=O)C1=CN(C)C=C(C(=O)OCC)C1c1ccc(Br)cc1	i
Cc1cc(C)nc(NC(=O)COc2ccccc2)c1	i
Cc1ccc2oc(C(=O)Nc3ccc(C)c([N+](=O)[O-])c3)c(C)c2c1	i
COc1ccc(CNS(=O)(=O)c2ccc(F)c(C)c2)cc1	i
COc1cc(C(=O)Oc2cccc(Nc3ncnc4ccccc34)c2)cc(OC)c1OC	i
COc1ccc(CC(=O)Nc2ccc(NC(=O)c3ccccc3F)cc2)cc1	i
CCn1cc(CNC(=O)c2ccc([N+](=O)[O-])cc2)cn1	i
SMILES	Mtb H37Rv
CCOC(=O)CCc1c(C)c2ccc(O)cc2oc1=O	0.1%
CCOc1ccc(NS(=O)(=O)c2ccc(NC(=O)C(C)c3ccccc3)cc2)cc1 (stereo unspecified)	i
COCCn1c(SCC(=O)NCc2ccccc2)nnc1-c1ccccc1	i
O=C(NCc1ccccc1F)c1cnccn1	i
COc1ccc(NC(=S)NC(=O)c2ccc(-c3cccc(Cl)c3Cl)o2)cc1Cl	i
O=C(NCc1ccco1)C1COc2ccccc2O1 (stereo unspecified)	6.0%
O=C(NCCCn1ccnc1)C1CC(c2ccccc2Cl)=NO1 (stereo unspecified)	i
COc1cc(NC(=O)c2ccc(Cn3nc(C)c(Br)c3C)o2)cc(OC)c1OC	i
CCc1cccc(CC)c1NC(=O)c1ccc([N+](=O)[O-])cc1	i
Cc1cccc(OCC(=O)Nc2ccc(Br)c(Cl)c2)c1	9.2%
CCC(=O)Oc1ccc(C(=O)Nc2cccc(C(=O)O)c2C)cc1	i
CC(C)c1ccccc1OCC(=O)c1ccc(O)cc1O	4.5%
Cc1cccc(-c2nnc(SCc3nc4ccccc4c(=O)[nH]3)n2-c2ccccc2)c1	i

In the list so far, 17 have fluorine.
SMILES	Mtb H37Rv
CSc1cccc(NC(=O)CN(Cc2ccccc2F)S(=O)(=O)c2ccc(C)cc2)c1	i
COc1ccccc1N1CCN(C(=O)C2CCN(S(=O)(=O)c3ccc(F)cc3)CC2)CC1	i
O=S(=O)(Nc1ccccc1Cl)c1ccccc1F	i
N#CCCn1cc(CNCc2ccccc2)c(-c2ccc(F)cc2)n1	i
O=S(=O)(NCCSc1nnnn1-c1ccccc1)c1ccc(F)cc1	0.3%
CCc1ccccc1N(CC(=O)Nc1cc(C(F)(F)F)ccc1Cl)S(=O)(=O)c1ccccc1	0.0%
Fc1ccc(CNCc2ccc3c(c2)OCO3)cc1	i
O=S(=O)(c1ccc(Cl)cc1)N1CCN(Cc2ccc(C(F)(F)F)cc2)CC1	i
FC(F)(F)c1ccccc1NC(=S)NCCn1cc(Cl)cn1	i
Cc1cc(C)cc(NC(=O)c2ccc(COCC(F)(F)C(F)F)cc2)c1	i
CCn1c(CNC(=O)c2ccccc2F)nnc1SCC(=O)Nc1ccc(Br)cc1C	i
Fc1ccc(OCCOc2ccc(F)cc2)cc1	0.2%
Cc1csc(NC(=O)c2sc3nc4c(c(C(F)(F)F)c3c2N)CCC4)n1	4.8%
CCN=C(NS(=O)(=O)c1ccc(Cl)cc1)c1ccc(F)cc1	i
COc1ccc(CNS(=O)(=O)c2ccc(F)c(C)c2)cc1	i
COc1ccc(CC(=O)Nc2ccc(NC(=O)c3ccccc3F)cc2)cc1	i
O=C(NCc1ccccc1F)c1cnccn1	i
